High-throughput results as filed in PubChem BioAssay.
rRNA inh HTS: reduced GFP signal of wild-type E. coli, primary screen, bacterial rRNA inhibitor project, GFP/RFP fluorescence, OD600, single point; GFP signal change (wild-type ribosome), % (no concentration beside the values); E. coli WT GFP vs humanized-ribosome RFP mutants, 24 h; stronger effect = lower value; DMSO median 0, no signal -100; actives 1.6% (n = 350,000);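 active means significant combined selectivity score with lowered wild-type GFP, culture density cut under 30%, mutant RFP and density less affected; inactive means any of these conditions unmet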; further: one replicate is shown; some compounds called inactive have numbers as strong as hits
ALR H2O2 inh: inhibitors of human ALR sulfhydryl oxidase, primary screen, biochemical, H2O2 detection, HRP-luminol luminescence, single point; FAD-linked sulfhydryl oxidase ALR (Homo sapiens), P55789; actives 3.8% (n = 290,000); inhibition, % (concentration not given with the values); AID 485317, 2010; purified ALR, DTT oxidation;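 active means mean and each replicate at 75% or more; inconclusive means only one of the two met; inactive means neither met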;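 further: stock transfer was 7.5 nL into about 7.5 µL; 0% = neutral wells and 100% = wells with inactivated enzyme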
Target sequence (P55789 whole entry, looked up): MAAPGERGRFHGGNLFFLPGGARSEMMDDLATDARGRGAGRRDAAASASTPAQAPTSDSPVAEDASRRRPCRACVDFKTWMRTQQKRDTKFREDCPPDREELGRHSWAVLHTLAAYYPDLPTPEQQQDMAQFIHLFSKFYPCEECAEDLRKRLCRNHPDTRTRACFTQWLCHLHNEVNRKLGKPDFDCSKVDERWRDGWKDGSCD
E coli growth: E. coli growth inhibition, primary screen, OD600; AID 1053175, 2014; Escherichia coli growth, 23 h; stronger effect = lower value; actives 0.21% (n = 330,000); OD600 absorbance (test concentration not listed);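 active means OD600 absorbance below the run mean of sample wells minus 3.6 SD, in any replicate, cut at about 0.56 in these data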;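 further: stock transfer was 300 nL into about 60 µL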
HNF4A DNA FP: change in binding of human HNF4A to DNA, primary screen, biochemical, fluorescence polarization, FITC-DNA | Hepatocyte nuclear factor 4-alpha (Homo sapiens), P41235 | 1 h | AID 1224865, 2016 | activity change, % at 10 µM | actives 0.3% (n = 360,000); in the data active means activity change above about 30%, passing the limit was not always enough;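 further: controls were the assay level and a saturating level of protein; the project sought stronger binding though the title names inhibitors; some compounds called inactive have numbers as strong as hits; positive values seem to mean higher polarization but the record does not say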
Target sequence (P41235 whole entry, looked up): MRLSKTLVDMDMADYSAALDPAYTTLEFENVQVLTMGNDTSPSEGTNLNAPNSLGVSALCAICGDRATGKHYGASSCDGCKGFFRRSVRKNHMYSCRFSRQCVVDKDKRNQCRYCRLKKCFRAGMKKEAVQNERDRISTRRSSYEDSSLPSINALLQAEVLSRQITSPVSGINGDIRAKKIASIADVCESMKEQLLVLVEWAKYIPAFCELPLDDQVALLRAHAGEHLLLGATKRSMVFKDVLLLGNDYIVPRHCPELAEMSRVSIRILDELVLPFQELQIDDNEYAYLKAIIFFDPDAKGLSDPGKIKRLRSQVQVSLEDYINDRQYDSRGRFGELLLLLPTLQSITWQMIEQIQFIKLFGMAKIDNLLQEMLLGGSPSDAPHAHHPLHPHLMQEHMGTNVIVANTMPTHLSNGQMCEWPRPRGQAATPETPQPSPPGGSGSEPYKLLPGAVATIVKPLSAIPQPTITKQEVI
Vif A3G: inhibitors of Vif binding to APOBEC3G peptide, primary screen, biochemical, TR-FRET, GST-Vif 1-94, biotin-A3G peptide, dose response retest (AID 1117319); Virion infectivity factor (Human immunodeficiency virus type 1 group M subtype B (isolate …; TR-FRET GST-Vif / biotin-A3G peptide binding; higher % means a stronger effect; test concentration not given here; strong numbers were not always called active; inhibition, %; hits with a dose series show IC50 in µM; actives 0.57% (n = 260,000);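 active means above the screen mean plus three standard deviations and confirmed in dose response; inconclusive means results disagree or hit not tested in dose response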;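 further: Vif residues 1-94 fused to GST binding biotinylated APOBEC3G peptide 110-148; 0% = full assay without inhibitor and 100% = GST in place of GST-Vif; retest series ran down from 100 µM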
FGF22 binding: binders of human FGF22 protein, primary screen, FGF22 synaptogenesis inhibitor project, biophysical, thermal shift, single point. Fibroblast growth factor 22 (Homo sapiens), Q9HCT0. recombinant FGF22 thermal shift, SYPRO orange fluorescence; percent of sucrose octasulfate shift, DMSO zero. calls only at 9.99 µM. actives 1.5% (n = 340,000). AID 651658, 2012;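 active means melting point raised past a set limit in the mean and every replicate; inconclusive means no clear call; three in four hits are not shown here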
Target sequence (Q9HCT0 whole entry, looked up): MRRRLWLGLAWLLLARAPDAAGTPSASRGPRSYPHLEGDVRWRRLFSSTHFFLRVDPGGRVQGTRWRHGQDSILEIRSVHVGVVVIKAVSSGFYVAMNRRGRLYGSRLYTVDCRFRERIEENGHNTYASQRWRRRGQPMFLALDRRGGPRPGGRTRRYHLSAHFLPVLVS
rRNA inh HTS OD600: second read-out of rRNA inh HTS, no call of its own (marks repeat the call); OD600 change, %; measured here: OD600 growth;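 optical density of the mix in the first replicate; 0 = DMSO median and -100 = no signal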
rRNA inh HTS RFP: also measured in rRNA inh HTS; calls as there; RFP signal change, %; measured here: RFP humanized mutant strains;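 first replicate; 0 = DMSO median and -100 = no signal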
The depositor's hits bear a star; i = inactive; ? = inconclusive; · = not tested or not shown.

SMILES	rRNA inh HTS	ALR H2O2 inh	E coli growth	HNF4A DNA FP	Vif A3G	FGF22 binding	others
C#CCOCCOCCOCCNc1nc(N2CCN(C(=O)CCCCCCCCCCNC(=O)[C@H](CCCCN)n3cc(C[C@@H](C)CC)nn3)CC2)nc(N2CCN(C(=O)CCCCCCCCCCNC(=O)[C@@H]([C@H](C)O)n3cc(C)nn3)CC2)n1	·	-21	·	65*	·	·
O=C(N/N=C\c1ccc(CNS(=O)(=O)c2ccc(Cl)cc2)o1)C(=O)Nc1ccc(Oc2ccccc2)cc1	·	-1	·	0.0	·	·
COc1ccc(/C=N/NC(=O)CNC(=O)c2cccs2)cc1	·	-3	·	2.7	·	·
COc1ccc2c(c1)-c1nc(/N=C/c3ccc(O)c(OC)c3)sc1CC2	·	-52	·	3.1	·	·
Cc1ccc(CN2CCN(/N=C/c3cc(Br)cc(Br)c3O)CC2)cc1	·	-1	·	-1.7	·	·
O=c1c2c(nc3cc(-c4ccc(F)cc4)[nH]n13)CCC2	·	-24	·	-1.6	·	·
COC(=O)C[C@H]1c2cc(C(F)(F)F)ccc2S(=O)(=O)N1c1ccc(N(C)C)cc1	·	57	·	-1.9	·	·
CC(C)(C)[C@H]1C=C(C(=O)O)O[C@@H](OCCCCO)C1	·	-5	·	2.2	·	·
O=C(NCc1ccccc1)C(c1ccncc1)n1c(=O)c(-c2ccccc2)nc2ccccc21 (stereo unspecified)	·	·	·	3.2	·	i
Cc1cccc(C)c1NC(=O)C(c1ccccc1OC(F)(F)F)N1CCC(c2ccccc2)CC1 (stereo unspecified)	·	·	·	3.4	·	i
COCCN1C(=O)CN(S(C)(=O)=O)CC1(C)C(=O)NCc1ccccc1 (stereo unspecified)	·	·	·	-3.6	·	i
O=C(NCc1ccccc1)C(c1ccc(-c2ccccc2)cc1)N1CCN(C(=O)C2CCCO2)CC1 (stereo unspecified)	·	·	·	-1.0	·	i
COC(=O)c1sc(N)nc1CCNC(=O)OC(C)(C)C	·	·	·	-2.7	·	i
Cc1ccccc1CN1C(=O)CN(S(C)(=O)=O)CC1(C)C(=O)NCc1ccccc1 (stereo unspecified)	·	·	·	2.2	·	i
Cc1cccc(C)c1NC(=O)C(c1cc2ccccc2o1)N1CCN(C)CC1 (stereo unspecified)	·	·	·	-0.2	·	i
COC(=O)[C@@]12C[C@@H](CC(=O)NCc3ccc(C)o3)C(=O)N(Cc3ccc4c(c3)OCO4)C1=CCC(C)(C)C2	·	·	·	0.5	·	i
COc1ccc(NC(=O)c2cc(-c3sc(NC(=O)c4ccccc4)nc3C)n(CCO)n2)cc1	·	·	·	1.9	·	i
CC1(C(=O)NCc2ccccc2)CN(S(C)(=O)=O)CC(=O)N1Cc1ccc2c(c1)OCO2 (stereo unspecified)	·	·	·	11	·	i
CCOC(=O)[C@]12CCCC=C1N(Cc1ccccc1)C(=O)[C@H](CC(=O)NCc1ccc(C)o1)C2	·	·	·	2.2	·	i
COC(=O)[C@]12CCCCC=C1N(CCc1ccc(OC)c(OC)c1)C(=O)[C@H](CC(=O)NCC13CC4CC(CC(C4)C1)C3)C2	·	·	·	-3.6	·	i
CC(C)(C)NC(=O)C1C(c2ccc(C(F)(F)F)cc2)=Nc2ccccc2N1C(=O)c1cccc(C(F)(F)F)c1 (stereo unspecified)	·	·	·	-0.1	·	i
CC1(C(=O)NCc2ccccc2)CN(S(C)(=O)=O)CC(=O)N1CCc1ccccc1 (stereo unspecified)	·	·	·	0.6	·	i
Cc1ccc(S(=O)(=O)N2CCN(C(=O)C(O)c3ccccc3)CC2)cc1 (stereo unspecified)	·	·	·	0.3	·	i
Cc1cc2c(cc1C)-n1nnnc1C(N1CCN(CC(=O)NC(C)C)CC1)C(=O)N2 (stereo unspecified)	·	·	·	-1.8	·	i
COC(=O)C1=CN(c2ccc3c(c2)OCO3)C(N)=C(C#N)C1c1ccc(-c2ccccc2)cc1 (stereo unspecified)	·	·	·	-1.1	·	i
CCOC(=O)[C@]12CCCC=C1N(CCc1ccc(OC)c(OC)c1)C(=O)[C@H](CC(=O)NCC13CC4CC(CC(C4)C1)C3)C2	·	·	·	-3.1	·	i
COc1ccc(OC)c(CN2C(=O)CN(S(C)(=O)=O)CC2(C)C(=O)NCc2ccccc2)c1 (stereo unspecified)	·	·	·	0.7	·	i
COC1=CC(=O)OC(c2cccc([N+](=O)[O-])c2)C1 (stereo unspecified)	·	·	·	0.2	·	i
CCOC(=O)N1CCN(C(=O)C[C@@H]2C[C@@]3(C(=O)OCC)CCCC=C3N(CCc3ccc(OC)c(OC)c3)C2=O)CC1	·	·	·	7.1	·	i
CCOC(=O)[C@]12CCCC=C1N(CCC1=CCCCC1)C(=O)[C@H](CC(=O)NCc1ccc(C)o1)C2	·	·	·	-3.8	·	i
COC(=O)/C=C1\OCc2cc(OC)c(OCc3ccccc3)cc21	·	·	·	2.2	·	i
CCCCNC(=O)C[C@@H]1C[C@@]2(C(=O)OC)CC(C)(C)CC=C2N(Cc2ccccc2)C1=O	·	·	·	0.3	·	i
COc1ccc(NC(=O)C(c2ccccc2F)n2c(=O)c(-c3cc4ccccc4[nH]3)nc3ccccc32)cc1 (stereo unspecified)	·	·	·	2.7	·	i
O=C(C(=O)N1CCN(c2ccccc2)CC1)c1cccc(Br)c1	·	·	·	1.8	·	i
CCCCNC(=O)C[C@@H]1C[C@@]2(C(=O)OC)CC(C)(C)CC=C2N(Cc2cccc3ccccc23)C1=O	·	·	·	-1.4	·	i
CC(C)NC(=O)C1(C)CN(S(C)(=O)=O)CC(=O)N1C1CCN(Cc2ccccc2)CC1 (stereo unspecified)	·	·	·	-4.7	·	i
Cc1cccc(C)c1NC(=O)C(c1ccc(C(F)(F)F)cc1)n1c(=O)c(-c2ccccc2)nc2ccccc21 (stereo unspecified)	·	·	·	-0.4	·	i
CCCCNC(=O)C1C(c2ccc(C(F)(F)F)cc2)=Nc2ccccc2N1C(C)=O (stereo unspecified)	·	·	·	1.6	·	i
CCCCCCCCN1C(=O)[C@H](CC(=O)NCCC(C)C)C[C@@]2(C(=O)OC)CC(C)(C)CC=C12	·	·	·	6.5	·	i
COC(=O)C[C@@H]1OC[C@H](C(C)C)N1S(=O)(=O)c1ccc(C)cc1	·	·	·	-3.1	·	i
CC(C)CN1C(=O)CN(S(C)(=O)=O)CC1(C)C(=O)NCc1ccccc1 (stereo unspecified)	·	·	·	-4.7	·	i
O=C(NCCc1ccccc1F)C1C(=O)Nc2ccccc2C(=O)N1C1CCCCC1 (stereo unspecified)	·	·	·	-3.0	·	i
Cn1c(NCCN2CCCC2)nc2cc(-c3cccc(C(F)(F)F)c3)sc2c1=O	2	·	·	1.6	·	·	rRNA inh HTS OD600=1;rRNA inh HTS RFP=-0.6
CC(C)OCCCNc1nc2c(-c3ccccc3)nnn2c2ccccc12	·	·	0.72	·	-14%	·
COC(=O)c1ccc(COc2ccc3c(C)c(C)c(=O)oc3c2C)o1	·	·	0.69	·	15%	·

Reprinted from the part before: 7 compounds, then new ones.
SMILES	rRNA inh HTS	ALR H2O2 inh	E coli growth	HNF4A DNA FP	Vif A3G	FGF22 binding	others
CCCCCCCCN1C(=O)[C@H](CC(=O)NCCC(C)C)C[C@@]2(C(=O)OC)CC(C)(C)CC=C12	·	·	·	6.5	·	i
COC(=O)C[C@@H]1OC[C@H](C(C)C)N1S(=O)(=O)c1ccc(C)cc1	·	·	·	-3.1	·	i
CC(C)CN1C(=O)CN(S(C)(=O)=O)CC1(C)C(=O)NCc1ccccc1 (stereo unspecified)	·	·	·	-4.7	·	i
O=C(NCCc1ccccc1F)C1C(=O)Nc2ccccc2C(=O)N1C1CCCCC1 (stereo unspecified)	·	·	·	-3.0	·	i
Cn1c(NCCN2CCCC2)nc2cc(-c3cccc(C(F)(F)F)c3)sc2c1=O	2	·	·	1.6	·	·	rRNA inh HTS OD600=1;rRNA inh HTS RFP=-0.6
CC(C)OCCCNc1nc2c(-c3ccccc3)nnn2c2ccccc12	·	·	0.72	·	-14%	·
COC(=O)c1ccc(COc2ccc3c(C)c(C)c(=O)oc3c2C)o1	·	·	0.69	·	15%	·
Cc1[nH]c2ccccc2c1NC(=O)CN1CCN(Cc2ccc3c(c2)OCO3)CC1	·	·	0.75	·	6%	·
CC(=O)N(Cc1ccco1)Cc1cc2cccc(C)c2n2nnnc12	·	·	0.71	·	-18%	·
O=C(CN1CCN(Cc2ccc3c(c2)OCO3)CC1)N1CCc2[nH]c3ccccc3c2C1	·	·	0.79	·	10%	·
COc1ccc(NC(=O)CN2CCC3(O)CCCCC3C2c2ccccc2OC)cc1 (stereo unspecified)	·	·	0.72	·	3%	·
COc1ccc(-n2nc3cc(C)c(NC(=O)C(C)C)cc3n2)cc1	·	·	0.65	·	-3%	·
O=C(NC1CCC(NC(=O)C2CCCO2)CC1)C1CCCO1 (stereo unspecified)	·	·	0.66	·	?	·
COc1ccc(NC(=O)c2cnc(C)cn2)c2ncccc12	·	·	0.68	·	-1%	·
CCN1/C(=C/c2ccc3ccc(C)cc3[n+]2CC)Sc2ccccc21	·	·	0.51*	·	-32%	·
COc1c(O)cc2c(c1O)C(=O)CC(c1ccccc1)O2 (stereo unspecified)	·	·	0.66	·	2%	·
CC(C)On1c(SCC(=O)N(C)C)nc2ccccc2c1=O	·	·	0.64	·	-6%	·
CC(C)CN(C(=O)COC(=O)c1cc2ccccc2oc1=O)C1CCS(=O)(=O)C1 (stereo unspecified)	·	·	0.69	·	-2%	·
COCCn1c(-c2cc(OC)c(OC)c(OC)c2)nc2oc3cc(OC)ccc3c(=O)c2c1=O	·	·	0.62	·	-2%	·
CCn1ccc(C(=O)Nc2ccc(S(=O)(=O)Nc3ccccc3OC)cc2)n1	·	·	0.71	·	4%	·
COc1ccc(S(=O)(=O)NC2CC(C)(C)NC(C)(C)C2)c(C)c1C	·	·	0.72	·	>100µM*	·
COc1cc(C2CC(=O)n3c(nc4ccccc43)S2)cc(OC)c1OC (stereo unspecified)	·	·	0.68	·	?	·
Cc1ccc2nc3sc(C(=O)Nc4ccc(N5CCOCC5)cc4)c(N)c3cc2c1	·	·	0.66	·	12%	·
Clc1ccc(Cn2ncc3c(NCc4ccco4)ncnc32)c(Cl)c1	·	·	0.73	·	-1%	·
CCOC(=O)c1cc2c(ccn2C)n1CC(=O)N1CCN(c2ccccc2OC)CC1	·	·	0.67	·	?	·
Cc1cccc(NC(=O)c2c(O)c3cccc4c3n(c2=O)CCC4)n1	·	·	0.74	·	-2%	·
O=C(CSc1nc(N2CCCCC2)nc(N2CCCCC2)n1)N1CCc2ccccc21	·	·	0.74	·	68%	·
CC(=O)Nc1nc2c(c3c1c(=O)oc1ccccc13)CCCC2	·	·	0.65	·	4%	·
O=S(=O)(c1ccc(S(=O)(=O)N2CCN(Cc3ccccc3)CC2)cc1)N1CCOCC1	·	·	0.64	·	7%	·
Cc1ccc(S(=O)(=O)CCC(=O)Nc2ccc(S(=O)(=O)N(C)C)cc2)cc1	·	·	0.64	·	-5%	·
Cn1c(=O)[nH]c(=O)c2c1nc(Br)n2CCCc1ccccc1	·	·	0.73	·	-3%	·
CCCn1cnc2c(c1=O)c1nc3ccccc3nc1n2Cc1ccccc1OC	·	·	0.66	·	1%	·
O=C(CSCCSCC(=O)c1ccco1)c1ccco1	·	·	0.7	·	?	·
Cc1n[nH]c(=S)c2nn(-c3cccc(Cl)c3)c(C)c12	·	·	0.75	·	-10%	·

An excerpt; the hit share may differ from the screen's.
